Screening data as filed in PubChem.
ALR inh = human ALR oxidase inhibition via reduced H2O2 | P55789 | purified ALR, DTT oxidation, H2O2 HRP-luminol luminescence | inhibition, % (concentration not given with the values) | 290,000 compounds, 3.8% hits | AID 485317;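 active = mean and each replicate at 75% or more; inconclusive = only one of the two met; inactive = neither met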;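 also: stock transfer was 7.5 nL into about 7.5 µL; 0% = neutral wells and 100% = wells with inactivated enzyme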
Target sequence (P55789 whole entry, looked up): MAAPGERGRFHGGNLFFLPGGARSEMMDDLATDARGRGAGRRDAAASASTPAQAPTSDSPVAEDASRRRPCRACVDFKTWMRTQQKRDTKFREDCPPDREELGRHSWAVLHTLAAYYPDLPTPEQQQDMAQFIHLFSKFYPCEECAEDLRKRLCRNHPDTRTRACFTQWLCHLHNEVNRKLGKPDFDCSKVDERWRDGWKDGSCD
T cruzi repl = blocks replication of Trypanosoma cruzi; inhibition, % (no concentration beside the values); T. cruzi beta-gal in NIH3T3, luminescence, 90 h; AID 1885; 300,000 compounds, 1.4% hits;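 active = mean inhibition across valid replicates above about 55%, limit read from the data; inconclusive = mean below that limit but half or more replicates reach it; inactive = mean below it, under half of replicates reach it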;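 also: signal also drops with host cell toxicity which is not excluded here; 0% = plate median of DMSO wells and 100% = zero luminescence signal; higher percent means less beta-gal luminescence so fewer parasites; stock transfer was 50 nL into about 50 µL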
Calb FLC = C. albicans growth modulation with fluconazole; C. albicans CaCi-2 (fluconazole-resistant clinical isolate) + fluconazole, Alamar Blue growth, 48 h; growth inhibition, % (no concentration beside the values); 300,000 compounds, 0.57% hits; AID 1979;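 active = most replicates above 75%; inconclusive = exactly half above 75%; inactive = most below 75%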;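 also: all wells also contain fluconazole at 8 µg/ml as a sub-toxic cotreatment; 0% = median of DMSO wells and 100% = median of geldanamycin control wells; wells of about 8 µL received 7.5 nL stock; the first replicate is given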
LANA-H2A inh = blocks KSHV LANA binding to histone H2A/H2B | 320,000 compounds, 0.6% hits | cell-free LANA-H2A/H2B peptide, fluorescence polarization | inhibition, % (concentration not given with the values) | AID 2629; in the data active = inhibition mostly above about 10%, no sharp cut-off; inactive = mostly below about 6.7%;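 also: stock transfer was 7.5 nL into about 10 µL; 0% = median of vehicle wells and 100% = median of positive control wells; one replicate is shown; the record names a cut of 25% in any replicate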
A1 inh = inhibitors of the anti-apoptotic protein A1, read as caspase activation. MEF A1-2A-BIM cells, Caspase-Glo 3/7 luminescence, 3 h; percent of clofoctol response, vehicle zero. caspase activation, % (no concentration beside the values). 330,000 compounds, 0.066% hits. AID 2462;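 active = over half of replicate activation scores above 10%, or exactly half above 10 with the replicate mean above 10; inconclusive = replicate mean below 10 yet half the replicates above 10; inactive = over half of replicates below 10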;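 also: wells of about 30 µL received 50 nL stock; many hits fall short of the cut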
Beta apoptosis = beta cell apoptosis inhibition | INS-1E cytokine-induced death, ATP luminescence, 48 h; percent of positive-control rescue, neutral wells zero | protection from apoptosis, % (concentration not given with the values) | 300,000 compounds, 0.8% hits | AID 435005;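 active = all replicates at 75% or more, or half of them and the mean; inconclusive = half reach 75% but not the mean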;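 also: 0% = cytokine-treated negative control wells and 100% = positive control rescue; higher means more ATP so stronger rescue from cytokine killing; wells of about 40 µL received 100 nL stock; the first replicate is given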
Beta2AR agonist = human beta-2 adrenergic receptor agonism by FAP; P07550; Am2.2-beta2AR cells, FAP receptor internalization, flow cytometry; reference of the scale not given here; response, % (test concentration not listed); 340,000 compounds, 0.43% hits;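 active = response above a set limit, near 3 SD of response in nonfluorescent compounds, cut at about 42% in these data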;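 also: stock transfer was 100 nL into about 11 µL; a reference agonist was the positive control; negative values mostly stem from fluorescent compounds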
Target sequence (P07550 whole entry, looked up): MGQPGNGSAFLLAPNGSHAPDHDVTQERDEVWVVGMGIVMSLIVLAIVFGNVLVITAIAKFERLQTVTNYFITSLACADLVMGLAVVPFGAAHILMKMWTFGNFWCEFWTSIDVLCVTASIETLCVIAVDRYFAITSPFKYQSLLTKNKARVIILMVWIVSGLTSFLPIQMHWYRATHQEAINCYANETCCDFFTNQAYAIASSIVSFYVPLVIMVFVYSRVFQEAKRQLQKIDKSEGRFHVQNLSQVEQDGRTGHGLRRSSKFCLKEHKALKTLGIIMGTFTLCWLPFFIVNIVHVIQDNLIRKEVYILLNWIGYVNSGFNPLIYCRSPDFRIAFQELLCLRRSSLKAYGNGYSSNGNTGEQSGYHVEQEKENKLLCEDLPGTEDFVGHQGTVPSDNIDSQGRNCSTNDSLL
rRNA inh HTS = inhibitors of bacterial rRNA selective over humanized ribosomes; E. coli WT GFP vs humanized-ribosome RFP mutants, fluorescence, 24 h; active compounds read low; DMSO median 0, no signal -100; GFP signal change (wild-type ribosome), % (concentration not given with the values); 350,000 compounds, 1.6% hits; AID 720706;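 active = significant combined selectivity score with lowered wild-type GFP, culture density cut under 30%, mutant RFP and density less affected; inactive = any of these conditions unmet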; also: one replicate is shown; some compounds called inactive have numbers as strong as hits
rRNA inh HTS OD600 = further read-out of rRNA inh HTS, marked with its call; OD600 change, %; measured here: OD600 growth;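 optical density of the mix in the first replicate; 0 = DMSO median and -100 = no signal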
rRNA inh HTS RFP = second read-out of rRNA inh HTS, no call of its own (marks repeat the call); RFP signal change, %; measured here: RFP humanized mutant strains;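 first replicate; 0 = DMSO median and -100 = no signal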
* marks the source's active call; other numbers are inactive results; ? = inconclusive; / = not tested or not shown. Not all compounds are listed (hit frequency here may not be typical).

compound,Calb FLC,T cruzi repl,A1 inh,ALR inh,rRNA inh HTS,Beta2AR agonist,LANA-H2A inh,rRNA inh HTS RFP,rRNA inh HTS OD600,Beta apoptosis
O=C(COC(=O)c1ccco1)Nc1ccc2c(c1)OCO2,2,-16,0.4,-11,6,-1,0.4,-0.5,11,-6
COc1ccc(N2C(=O)CCC2(C#N)c2ccc(OC)cc2)cc1 (configuration not stated),9,-2,0.2,-5,/,0,0.1,/,/,-2
COc1ccc(/C=N/NC(=S)NC2CCS(=O)(=O)C2)cc1OC (configuration not stated),-1,-15,0.2,41,/,-2,3.1,/,/,2
CCC1CCCCN1C(=O)Cn1c(=O)oc2ccccc21 (configuration not stated),8,-4,0.2,-11,/,3,1.2,/,/,-2
COc1cccc(CNC(=O)c2ccc(NS(=O)(=O)c3ccc4[nH]c(=O)[nH]c4c3)cc2)c1,/,/,-0.1,-2,0,-13,/,5.0,-4,-3
Cc1cccc(NS(=O)(=O)c2nnc(NC(=O)c3cccc(C)c3)s2)c1,0,-7,0.6,59,-51,-14,-0.2,-9.6,-71,-4
CCC1(C)Cc2c(sc3nnn(CC(=O)Nc4ccc(C)cc4)c(=O)c23)CO1 (configuration not stated),-8,4,0.4,-3,/,-5,-2.4,/,/,-5
O=C(CN1C(=O)NC2(CCCCC2)C1=O)N1CCN(S(=O)(=O)c2ccccc2)CC1,12,-15,0.8,/,5,2,6.8,-0.3,5,-7
O=C1CCCN2N=C(SCC(=O)Nc3ccc(F)cc3F)SC2=N1,-3,-4,0.1,/,4,0,0.6,-1.7,4,-1
c1ccc(OCc2nn3c(Cn4cnc5ccccc54)nnc3s2)cc1,2,-10,-0.1,-5,/,5,-2.0,/,/,-2
COc1cc(/C=C(\NC(C)=O)C(=O)NC(C)(C)CC(C)(C)C)ccc1OC(C)=O,13,-10,-0.7,-9,13,3,-2.5,2.0,8,2
CCOC(=O)C1=C(c2ccccc2)NC(=O)NC1c1ccc(O)c(OCC)c1 (configuration not stated),65,-8,1.2,19,4,2,2.9,2.3,-3,-2
COc1ccc(C(c2nnnn2Cc2ccccc2)N2CCN(C(=O)c3ccco3)CC2)cc1 (configuration not stated),11,22,-0.2,/,/,2,-0.2,/,/,/
COc1ccc2cc1Oc1ccc(cc1)C[C@H]1c3cc(c(OC)cc3CCN1C)Oc1c(OC)c(OC)cc3c1[C@@H](C2)N(C)CC3,/,/,-0.7,-7,-7,31,3.2,1.9,3,3
O=C(NCCc1c[nH]c2ccccc12)/C(=C/c1cccnc1)NC(=O)c1cccs1,-15,1,0.3,1,-28*,-1,0.2,-4.9*,-8.5*,9
CCOC(=O)C1=C(COC(=O)COc2ccccc2C#N)NC(=O)NC1C (configuration not stated),6,-2,-0.1,-3,2,0,-2.8,-3.3,15,-2
COc1cccc(-c2nc3ccccc3s2)c1,-1,-6,-7.8,-3,/,-6,1.8,/,/,4
O=C(CSc1ccc2nnc(CCNC(=O)c3ccccc3)n2n1)NC1CCCC1,-5,-6,1.4,-5,-1,-4,-2.4,-2.1,2,-6
COc1ccc(CNC(=O)C2CCCN2S(=O)(=O)c2ccc(S(=O)(=O)N(C)C)cc2)cc1 (configuration not stated),-5,3,-3.0,/,/,4,1.7,/,/,0
Nc1n[nH]c2c1C1(CCCCC1)Cc1ccccc1-2,35,-13,-0.5,16,/,1,0.2,/,/,-8
Cc1cc(=O)oc2cc(NC(=O)c3cccc(F)c3)ccc12,-5,2,-2.0,-4,8,1,2.6,0.7,38,5
CCOC(=O)c1c(C)[nH]c(C)c1C(=O)CSc1nnc(-c2ccco2)n1Cc1ccccc1,42,5,0.5,13,/,-22,1.3,/,/,-2
CCCCOC(=O)c1ccc(NC(=S)N2CCN(c3ncc4c(=O)c(C(=O)O)cn(CC)c4n3)CC2)cc1,-9,4,0.6,-5,-34,19,-6.8,-7.9,-42,3
Cc1nnc(SCC(=O)Nc2ccccc2)c2ccccc12,-5,7,0.9,99*,-4,-7,2.8,2.5,-5,-16
COc1ccccc1CCC(=O)Nc1cc(S(=O)(=O)N2CCOCC2)ccc1N1CCCC1,-10,-4,0.4,-12,-1,2,-22,1.0,-1,0
C=CCOc1ccc(C(=O)Nc2ccccc2C(=O)N2CCCC2)cc1,-1,-1,/,/,-2,-11,/,0.8,2,/
O=C(c1cc2ccccc2oc1=O)N1CCOCC1,-2,3,-0.3,-4,10,-6,3.3,-1.1,7,-2
O=C(NCc1ccccc1)C1=C[C@@H](c2ccccc2)C[C@@H](OCCCCO)O1,-5,15,-0.5,-16,9,-7,4.6,0.9,8,1
COc1ccc(CCN(C)C(=O)C2CCN(Cc3ccccc3)CC2)cc1OC,7,-2,0.8,-1,20,-2,-2.6,1.7,11,1
Cc1cccc(NCN2C(=O)c3ccncc3C2=O)n1,15,/,-1.0,-1,0,-3,-2.0,-2.8,12,-5
CS(=O)(=O)N1CCC(C(=O)Nc2ccc(F)cc2F)CC1,7,-26,-0.2,-2,/,4,5.3,/,/,/
O=C(NCCCl)Nc1cccnc1Cl,2,-8,0.6,1,10,0,1.9,1.8,9,-2
Cc1ccc(S(=O)(=O)N2CCN(CC(=O)N/N=C\C(Cl)=C\c3ccccc3)CC2)cc1,2,-8,0.4,-23,/,-5,-1.3,/,/,-2
COC(=O)c1cccc(NC(=O)COC(=O)CSc2nc(C)cc(C)n2)c1,7,-7,1.7,1,/,-5,-3.5,/,/,-3
CCN(C(=O)COc1cc(=O)n(CC)c2ccccc12)c1cccc(Cl)c1,9,-1,-0.1,-19,/,-18,2.9,/,/,9
COc1cc(NC(=O)CCC(=O)O)nc(OC)n1,?,-9,-0.2,-1,/,0,0.1,/,/,-6
Cc1c(C)n(C(=O)CSc2ncn[nH]2)c2ccccc12,-7,-15,0.0,33,-4,2,-7.0,-0.6,-5,-8
O=C(NCc1n[nH]c(=S)n1-c1ccc(Br)cc1)c1ccc(S(=O)(=O)N2CCCCC2)cc1,-1,-1,0.6,39,-11,-1,3.3,7.1,-15,-2
COCC(C)n1c(=O)sc2ccccc2c1=O (configuration not stated),-24,20,0.1,-23,12,21,-1.6,1.0,5,-6
COC(=O)c1ccc(CN2CCC(n3nccc3NC(=O)C3CCCC3)CC2)cc1,-10,53,0.1,0,10,2,2.4,2.7,10,3

Some of the entries so far, as labelled records:
Cc1ccc(S(=O)(=O)N2CCN(CC(=O)N/N=C\C(Cl)=C\c3ccccc3)CC2)cc1
  Calb FLC: 2	T cruzi repl: -8	A1 inh: 0.4	ALR inh: -23	rRNA inh HTS: /	Beta2AR agonist: -5	LANA-H2A inh: -1.3	rRNA inh HTS RFP: /	rRNA inh HTS OD600: /	Beta apoptosis: -2
COc1ccc2cc1Oc1ccc(cc1)C[C@H]1c3cc(c(OC)cc3CCN1C)Oc1c(OC)c(OC)cc3c1[C@@H](C2)N(C)CC3
  Calb FLC: /	T cruzi repl: /	A1 inh: -0.7	ALR inh: -7	rRNA inh HTS: -7	Beta2AR agonist: 31	LANA-H2A inh: 3.2	rRNA inh HTS RFP: 1.9	rRNA inh HTS OD600: 3	Beta apoptosis: 3
COC(=O)c1ccc(CN2CCC(n3nccc3NC(=O)C3CCCC3)CC2)cc1
  Calb FLC: -10	T cruzi repl: 53	A1 inh: 0.1	ALR inh: 0	rRNA inh HTS: 10	Beta2AR agonist: 2	LANA-H2A inh: 2.4	rRNA inh HTS RFP: 2.7	rRNA inh HTS OD600: 10	Beta apoptosis: 3

Continued.
compound,Calb FLC,T cruzi repl,A1 inh,ALR inh,rRNA inh HTS,Beta2AR agonist,LANA-H2A inh,rRNA inh HTS RFP,rRNA inh HTS OD600,Beta apoptosis
O=C(NC(=S)N1CCN(c2ccc([N+](=O)[O-])cc2)CC1)c1ccccc1Cl,-6,-30,-1.1,-14,-10,1,6.5,0.7,-13,-8
CCOC(=O)Cn1c(S(=O)(=O)Cc2ccc(F)cc2)nc(-c2ccccc2)c1-c1ccccc1,?,14,0.3,-6,/,1,-23,/,/,3
CC1CN(C(=O)COc2ccc3c(-c4ccccc4)cc(=O)oc3c2)CC(C)O1 (configuration not stated),/,/,-1.6,-4,-5,0,-3.1,-0.5,-6,-5
O=C(c1cccs1)N1CCN(S(=O)(=O)c2cccs2)CC1,-3,-19,0.3,-9,4,3,0.9,-2.2,-8,-4
Clc1cccc(-c2ccc(C=Nc3ccc(N4CCOCC4)cc3)o2)c1Cl,-9,3,/,/,-10,15,/,-3.1,-15,/
CCOC(=O)c1c(Nc2ccccc2)sc(/C=C2\C=Nc3ccccc32)c1O,-4,34,-0.5,-5,/,0,-0.7,/,/,-9
CN(C)C(=O)c1cc(C(=O)c2ccc(Cl)cc2Cl)c[nH]1,4,-10,1.0,/,-18,-3,-4.5,-11,4,/
CN1CCN(c2ccc(CNC(=O)c3ccc4c(c3)OCCO4)cc2)CC1,8,6,-0.7,-11,11,0,-4.0,0.8,6,4
CC(=O)NC(Cc1ccccc1)c1ccc2c(c1)OCCCO2 (configuration not stated),2,-12,1.5,-4,/,1,-1.2,/,/,-3
Cc1ccc(NC(=O)N2CCCC2C(=O)Nc2nnc(C(C)C)s2)cc1 (configuration not stated),-1,-8,0.7,-3,4,1,3.2,-2.2,5,-6
Cc1cc(C(=O)NCCC(c2ccccc2)c2ccccc2)c(C)o1,5,30,2.2,-2,/,6,-0.4,/,/,11
O=C(NC(=S)NCCN1CCOCC1)c1ccccc1Cl,-4,4,0.3,-5,/,-3,0.7,/,/,-3
CCOC(=O)CN(C(=O)CSc1nnc(C)n1-c1ccccc1)c1ccccc1,0,-1,-1.4,-5,7,-1,-0.9,1.0,1,-6
COc1cccc(-c2ccc3ncnc(NCc4cccc(C)c4)c3c2)c1,/,/,-1.0,-2,-1,3,-1.7,-5.8,2,-11
COc1cccc(OC)c1OCCCOc1ccc(C)cc1Br,-5,11,-0.1,/,/,7,-2.3,/,/,-3
COc1cccc(C(=O)Nc2ccc(NC(=O)Cc3ccccc3)cc2)c1,-5,1,0.8,-1,7,5,1.0,12,14,/
CCOc1ccc(C(=O)NCC(=O)OCCCOC(=O)CNC(=O)c2ccc(OCC)cc2)cc1,-18,7,-0.1,6,5,1,1.0,0.2,3,-6
Cc1ccc(S(=O)(=O)n2c([N+](=O)[O-])cnc2C)c(C)c1C,-8,-15,-0.4,40,/,31,5.5,/,/,/
CCc1nn2c(=O)cc(COc3ccc(/C=C4\C(=N)N5N=C(CC(C)C)SC5=NC4=O)cc3)nc2s1,-6,-13,0.0,-1,/,/,-2.8,/,/,4
